# StopGo FLuc = lowers the firefly signal of an FMDV 2A StopGo reporter; HEK cells with a luciferase reporter of 2A StopGo recoding; Potency, µM (titrated, usually from 57.5 µM), for inactives: top-dose signal change, negative = less light; hit rate 0.23% among 120,000; active = well fitted falling curve with a large enough effect; inconclusive = small, poorly fitted or top-dose-only effect; inactive = no such curve, though single readings can be large or run the other way; further: nearly all actives have a fitted effect of over 60% in size; overnight with compound
# 2A Renilla = FMDV 2A StopGo reporter, Renilla signal | HEK cells with a luciferase reporter of 2A StopGo recoding | hit rate 0.32% among 120,000 | Potency, µM (highest dose often 57.5 µM), for the others: at the highest dose signal change, negative = less light; active means well fitted falling curve with a large enough effect; inconclusive means small, poorly fitted or top-dose-only effect; inactive means no such curve, though single readings can be large or run the other way; further: nearly all actives have a fitted effect of over 55% in size; overnight with compound
# * hit, by the source's call; ? = inconclusive; [ ] = another dose, or the depositor's remark. On the % scale 0 is the no-effect control and ±100 the full control effect; potency means the concentration at half of the fitted maximal effect.
SMILES,StopGo FLuc,2A Renilla
O=C1CCSc2ccc(C(=O)NNC(=O)c3ccccn3)cc2N1,2%,2%
COc1ccc(CNC(=O)CSc2n[nH]c(-c3ccc(OC)cc3)n2)cc1,-8%,-32%
COC(=O)c1ccc(COC(=O)Cc2ccc3c(c2)OCCO3)cc1,7%,15%
O=C(NCc1cccnc1)C1CCN(S(=O)(=O)c2cccc(OC(F)(F)F)c2)CC1,-13%,-19%
Cc1cc(C(=O)O)c(C)n1CC(F)(F)F,12%,3%
Cn1c(=O)c2c(nc(NCCN3CCOCC3)n2Cc2cccc(F)c2)n(C)c1=O,5%,-8%
Fc1ccccc1-n1ncc2c1ncn1nc(COc3ccc(Cl)cc3)nc21,0%,-15%
CCOC(=O)c1c(S(=O)(=O)N2CCC(C(=O)Nc3ccc(C)cn3)CC2)c(C)n(C)c1C,-16%,10%
CCn1c(=O)cc(OCC(=O)N2CCN(c3ccc(F)cc3)CC2)c2ccccc21,?,28%
Cc1ccc(NC(=O)C(C)n2cccn2)c(Br)c1 (stereo not given),0%,7%
Clc1ccc(CN2CCCC2)cc1,0%,0%
COc1ccc(Nc2c3c(nc4ccccc24)CCC3)cc1Cl,0%,-7%
c1ccc(Nc2nc(-c3cccc4ccccc34)cs2)cc1,142%[activator],-2%
COC(=O)c1cc(C23CC4CC(CC(C4)C2)C3)ccc1O,10%,-2%
CC(C)(C)c1ccc(C(=O)Nc2ccc(OCc3cc(=O)n4ccsc4n3)cc2)cc1,8%,-2%
CC(C)C(=O)Nc1nnc(S(=O)(=O)N2CCCCCC2)s1,-9%,-5%
COc1ccc(-c2onc(C)c2C)cc1S(=O)(=O)N1c2ccccc2CC1C (stereo not given),-4%,53%[activator]
CCOCCCNc1oc(COc2ccc(F)cc2)nc1C#N,94%[activator],3%
CC(c1cc(F)ccc1F)N(C)CCS(=O)(=O)CCC(N)=O (stereo not given),-1%,-6%
COc1ccc(NC(=O)c2cnc(N3CCCC3)nc2)cc1OC,13%,-6%
COC(=O)C1CCN(c2csc3ccc(C)cc3c2=O)CC1,75%[activator],8%
CC1(C)C2CCC1(C)C(NC(=O)c1ccccc1)C2 (stereo not given),9%,25%
Cc1ccsc1C(=O)OCC(=O)c1ccccc1,147%[activator],30%
Cn1nnnc1SCCNCc1ccc(F)cc1,1%,-2%
COc1ccc(-c2noc(C3CC(=O)N(c4ccccc4)C3)n2)c(OC)c1 (stereo not given),-12%,-11%

# One compound at a time (already shown):
# COc1ccc(-c2onc(C)c2C)cc1S(=O)(=O)N1c2ccccc2CC1C (stereo not given) across the screens: StopGo FLuc: -4%; 2A Renilla: 53%[activator]
# CC(c1cc(F)ccc1F)N(C)CCS(=O)(=O)CCC(N)=O (stereo not given) across the screens: StopGo FLuc: -1%; 2A Renilla: -6%

# New compounds follow:
SMILES,StopGo FLuc,2A Renilla
CCOC(=O)Cn1c(=O)c2c(nc3n2CCN3c2ccc(CC)cc2)n(C)c1=O,0%,-6%
CCC(Oc1ccc(Br)cc1)C(=O)O (stereo not given),2%,-4%
Cc1ccc(NC(=O)c2cc(-c3cccs3)on2)cc1C,201%[activator],7%
Cc1ccc(C)c(OCn2ccc(C(=O)NCc3cn(C)nc3C)n2)c1,-37%,?
CC1(C)CC(NC(=S)Nc2ccc(Br)cc2)CC(C)(C)N1,182%[activator],11%
CCc1c(C(=O)NCc2cccnc2N2CCOCC2)cnn1-c1ccc(F)cc1,12%,0%
C=CCN(Cc1cccs1)C(=O)CSCc1ccc(C#N)cc1,-19%,-6%
CCCCCCc1ccc(-c2ccc(OC)cc2)nc1,92%[activator],4%
COc1ccc(C(=O)Nc2ccc(-c3nc4ccccc4o3)cc2)cc1,0%,1%
CC(C)(C)NC(=O)NC(=O)CSc1nnc(COc2ccccc2Cl)o1,22%,0%
COCC(C)NS(=O)(=O)c1ccc(NC(=O)c2nc(-c3ccccc3)oc2C)cc1 (stereo not given),?,?
Cc1ccc(-n2c3c(c(=O)[nH]c2=O)C(NC(=O)c2ccccc2F)(C(F)(F)F)C(=O)N3)cc1C (stereo not given),42%[activator],47%[activator]
Cc1cccc(COC(=O)c2ccc(C#N)cc2)c1,10%,2%
Cc1ccc(CN2CCN(C3CCN(S(=O)(=O)N(C)C)CC3)C(=O)C2=O)cc1,-10%,-13%
CCCNc1c(NC(=O)NCc2ccc(F)cc2)c(=O)oc2ccccc12,18%,2%
COc1ccc(-c2c(C)c3ccc(OC(C)=O)cc3oc2=O)cc1OC,30%,127%[activator]
O=C(c1cc2ccccc2oc1=O)N1CCN(c2ccc(Cl)c(Cl)c2)CC1,-3%,-14%
Cc1ccc(C)c(N2CCN(C(=O)C3CCN(c4nnc(-n5cccc5)s4)CC3)CC2)c1,?,?
COc1cccc(C2C(C(=O)Nc3ccccc3OC)=C(C)Nc3nc4ccccc4n32)c1 (stereo not given),-15%,-14%
COP(=O)(OC)C(O)C(Cl)(Cl)Cl (stereo not given),3%,-2%
CC(=O)NCc1ccc(C(=O)COc2ccc(C(C)=O)cc2)cc1,8%,-9%
O=C(C1CCN(c2nc3ccccc3[nH]2)CC1)N1CCN(c2ccccc2)CC1,-15%,-15%
CC1CCN(S(=O)(=O)N2CCC(C(=O)NCc3ccccc3Cl)CC2)CC1,10%,32%[activator]
CCNC(=O)c1cc(-c2ccc(Cl)cc2)nc2ccccc12,9%,5%
O=C(CC1NC(=O)c2ccccc2NC1=O)NC1CCCC1 (stereo not given),2%,-7%

# The list goes on.
SMILES,StopGo FLuc,2A Renilla
CCS(=O)(=O)c1ncc(Cl)c(C(=O)N(Cc2ccccc2)Cc2ccco2)n1,22µM*,-1%
CCOc1ccc(-n2c(SCC(N)=O)nc3c(oc4ccccc43)c2=O)cc1,-3%,-9%
Cc1ccc2c(=O)cc(C(=O)Nc3ccc(S(N)(=O)=O)cc3)oc2c1,-18%,-7%
Cc1cc(C(=O)NCC2(c3ccccc3)CCC2)cc(S(N)(=O)=O)c1C,-11%,23%
Cc1cc(C)c(NC(=O)C(=O)NCC(c2cccnc2)N2CCN(Cc3ccccc3)CC2)c(C)c1 (stereo not given),-23%,-7%
COc1ccc(Nc2nc3ccccc3nc2NS(=O)(=O)c2ccccc2)c(OC)c1,-2%,-8%
Cc1ccc(-c2noc(CN(C)C(C)c3cc4ccccc4o3)n2)cc1 (stereo not given),-5%,-1%
N#Cc1ccc(N2CCC(C(=O)OCc3cccc4cccnc34)CC2)nc1,19%,4%
COc1cccc(C(=O)Nc2nnc(S(=O)(=O)N3CCCC3)s2)c1,23%,-4%
CC1CCCN(C(=O)c2cc3ccc4cccnc4c3[nH]2)C1 (stereo not given),-76%,47%[activator]
O=C(CSc1nnc(-c2ccncc2)n1C1CC1)c1cc2ccccc2o1,11%,13%
Nc1ncc(S(=O)(=O)Nc2ccc(F)cc2F)cn1,-15%,1%
O=C(Nc1nnc(S(=O)(=O)N2CCOCC2)s1)c1ccccc1F,65%[activator],31%[activator]
Cc1cccc(C)c1Nc1c(-c2ccccc2F)nc2cccc(C)n12,-7%,-8%
CCNc1c(NC(=O)Nc2cc(C)cc(C)c2)c(=O)oc2ccccc12,0%,28%
CCCN1CCN(CCCNC(=O)c2ccc3c(c2)sc2nc(-c4ccc(OCC)cc4)cn23)CC1,-4%,-9%
Cn1ccc2c(OCC(=O)Nc3ccc(OC(F)(F)F)cc3)cccc2c1=O,-40%,-8%
COc1ccc(-c2noc(-c3ccc(NCc4ccc(C)cc4)c([N+](=O)[O-])c3)n2)cc1OC,-12%,9%
CCCSc1ncc(Cl)c(C(=O)N2CCN(c3cccc(Cl)c3)CC2)n1,17%,6%
COc1ccc(C2=C(O)C(=O)N(CCc3ccccc3)C2c2ccc(C(=O)O)cc2)cc1 (stereo not given),30%,-4%
CCN1C(=O)C2(c3ccccc31)c1c(oc3ccc(C)cc3c1=O)C(=O)N2CCCOC(C)C (stereo not given),-14%,-8%
COc1ccc2nc(SCC(=O)c3cc(C)n(C4CC4)c3C)[nH]c2c1,0%,12%
Cn1c(Oc2ccc3cc(Br)ccc3c2)c(C#N)c(=O)n(C)c1=O,0%,19%
CCOC(=O)c1cn(CC(=O)Nc2cccc(Cl)c2C)nn1,-6%,?
CN(Cc1cccc(Cl)c1Cl)S(=O)(=O)c1cn(C)c(=O)n(C)c1=O,-16%,36%[activator]

# New compounds follow:
SMILES,StopGo FLuc,2A Renilla
Cc1ccc(CNc2nc3ccc(Cl)cc3n3nnnc23)cc1,11%,-18%
CCOC(=O)C(C)Oc1ccc2c(=O)c(Oc3ccc(CC)cc3)c(C(F)(F)F)oc2c1 (stereo not given),20%,3%
CN(Cc1ccc(F)cc1)C(=O)Cn1nc(C(=O)O)c2ccccc2c1=O,17%,1%
COc1ccc(NC(C)=O)cc1NC(=O)c1cccn(Cc2ccccc2)c1=O,-18%,4%
CSc1ccc(-c2nc(CSCC(=O)NCc3ccc4c(c3)OCO4)c(C)o2)cc1,?,?
CCNC(=O)c1ccc(CNC(C)=O)cc1,3%,3%
CCOC(=O)c1cc(OC(=O)c2ccccc2C)n(-c2ccccc2)n1,0%,-9%
O=c1n(Cc2cccc(C(F)(F)F)c2)c2ccccc2c2nc(-c3ccccc3)nn12,-8%,-10%
COc1ccccc1NC(=O)C1=C(C)Nc2nc(SCc3ccccc3)nn2C1c1ccccn1 (stereo not given),-10%,-13%
COC(=O)c1ccc2c(c1)N(Cc1ccc(F)cc1Cl)C(=O)c1ccccc1S2(=O)=O,1%,4%
COc1ccc(-n2ccnc(NCc3cccs3)c2=O)cc1,118%[activator],-2%
CCc1nnc(CN2CCC(c3nc4ccccc4s3)CC2)o1,21%,-14%
Cc1occc1-c1nnc(SC(C)C(=O)NCc2cccs2)o1 (stereo not given),6%,-3%
CN(C)C(=O)/C(=C/C=C/c1ccccc1)NC(=O)c1ccccc1,30%,65%[activator]
COC(=O)CCCC[C@H]1SC[C@@H](N)[C@H]1N,6%,7%
O=C(CSCc1nc2ccccc2c(=O)[nH]1)Nc1cccc(O)c1,-7%,-11%
Cc1nc(S(=O)(=O)N2CCCCC2)c(C#N)c(C)c1Cl,-16%,3%
CSc1ccc(/C=N/NC(=O)c2ccccc2F)cc1,16%,42%[activator]
CCOc1cc(CNC(=O)c2cc(-c3ccc(Cl)s3)nc3ccccc23)ccc1OC,-9%,-2%
CCOc1ccc(S(=O)(=O)Nc2ccc(-c3ccc(N4CCCC4)nn3)cc2)cc1,-2%,-4%
COc1ccc(-c2cnnn2-c2ccc(NC(=O)c3ccc(S(=O)(=O)N(C)C)cc3)cc2)cc1,?,6.3µM*
Cc1ccc2c(c1)N(C(=O)N1CCC(C(=O)NCc3cccs3)CC1)CC(C)O2 (stereo not given),-22%,-11%
Cc1cc(C=O)c(C)[nH]1,-10%,-3%[1.06 µM]
Cc1ccn2c(=O)c(C(=O)Nc3ccc(F)c(C(F)(F)F)c3)cnc2c1,25%,-29%
Cc1cc(NS(=O)(=O)c2ccc(NC(=O)COc3c(C)ccc(C)c3C)cc2)nc(C)n1,-10%,67%[activator]

# Reprinted at random: 7 records from the list.
SMILES,StopGo FLuc,2A Renilla
CN(Cc1ccc(F)cc1)C(=O)Cn1nc(C(=O)O)c2ccccc2c1=O,17%,1%
CSc1ccc(-c2nc(CSCC(=O)NCc3ccc4c(c3)OCO4)c(C)o2)cc1,?,?
COC(=O)c1ccc2c(c1)N(Cc1ccc(F)cc1Cl)C(=O)c1ccccc1S2(=O)=O,1%,4%
Cc1ccn2c(=O)c(C(=O)Nc3ccc(F)c(C(F)(F)F)c3)cnc2c1,25%,-29%
Cc1ccc2c(c1)N(C(=O)N1CCC(C(=O)NCc3cccs3)CC1)CC(C)O2 (stereo not given),-22%,-11%
CCOC(=O)C(C)Oc1ccc2c(=O)c(Oc3ccc(CC)cc3)c(C(F)(F)F)oc2c1 (stereo not given),20%,3%
O=C(CSCc1nc2ccccc2c(=O)[nH]1)Nc1cccc(O)c1,-7%,-11%

# (cont.)
SMILES,StopGo FLuc,2A Renilla
COc1cc(-c2csc(-c3c(C)c(C)nn(C)c3=O)n2)ccc1OC(F)F,4%,3%
Cn1cc(-c2cc3n(n2)CCC(=O)N3CC(=O)NCc2ccccc2)c2ccccc21,-9%,1%
CCOC(=O)c1cccc(NC(=O)c2ccc3nc(Cc4ccccc4)oc3c2)c1,-14%,-37%
COc1cc(NC(=O)CCCN2C(=O)CCn3nc(-c4cn(C)c5ccccc45)cc32)cc(OC)c1,11%,40%[activator]
N#CC1(C(=O)NCC2(c3ccccc3)CCCCC2)CCCCC1,-1%,21%
CCCC(=O)Nc1ccc2oc(-c3ccc(OC)c(Br)c3)nc2c1,0%,4%
CC(=O)NCCNC(=O)CCc1ncc(-c2ccc(Cl)cc2Cl)o1,100%[activator],6%
CCOc1ccc(C2C(C(N)=O)=C(C)Nc3nc(-c4cccc(Cl)c4)nn32)cc1OC (stereo not given),8%,-4%
Cc1cc(C(=O)NCc2ccccc2)c2c(C)nn(-c3cccc(Cl)c3C)c2n1,-7%,-11%
CCOc1ccc(NC(=O)c2sc(-n3nc(C)c(CCC(C)C)c3C)nc2C)cc1,11%,7%
C#CCCCN([C@@H](CC(C)C)C(=O)OC)S(=O)(=O)c1ccc(F)cc1Br,-7%,13%
S=C(SSC(=S)N1CCCCC1)N1CCCCC1,8%,-1%
CCOC(=O)C1CCN(c2csc3ccc(C)cc3c2=O)CC1,40%[activator],33%[activator]
COc1ccc(NC(=O)CSc2nc(-c3cccs3)cc(C(F)(F)F)n2)c(OC)c1,-10%,-5%
CC(C)Oc1ccc(CNC(=O)CCCN2C(=O)c3cccnc3Oc3ccc(Cl)cc32)cc1,-18%,9%
COc1ccc(NC(=O)Cn2c(=O)cc(C)c3c(C)nn(-c4cccc(Cl)c4C)c32)cc1OC,2%,3%

# Screening data deposited in PubChem by National Center for Advancing Translational Sciences (NCATS).
